Screens as filed in PubChem.
KCNQ2 pot: KCNQ2 (rat) channel potentiation; O88943; CHO-K1 KCNQ2, FluxOR thallium flux fluorescence; hits give high values; B-score at 10 µM; hit rate 0.54% among 310,000; AID 2239;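 active = fluorescence ratio B-score at least 3 SD of library B-scores, with initial fluorescence B-score within 3 SD, cut at about 5.3 in these data; same plate scores as AID 2156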;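 note: B-score of peak minus minimum over baseline fluorescence ratio after K+ and Tl+ stimulus; positive B-score means potentiation of KCNQ2 with more thallium influx and brighter signal; only the inactives scoring about 0 or higher are listed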
Target sequence (O88943 whole entry, looked up): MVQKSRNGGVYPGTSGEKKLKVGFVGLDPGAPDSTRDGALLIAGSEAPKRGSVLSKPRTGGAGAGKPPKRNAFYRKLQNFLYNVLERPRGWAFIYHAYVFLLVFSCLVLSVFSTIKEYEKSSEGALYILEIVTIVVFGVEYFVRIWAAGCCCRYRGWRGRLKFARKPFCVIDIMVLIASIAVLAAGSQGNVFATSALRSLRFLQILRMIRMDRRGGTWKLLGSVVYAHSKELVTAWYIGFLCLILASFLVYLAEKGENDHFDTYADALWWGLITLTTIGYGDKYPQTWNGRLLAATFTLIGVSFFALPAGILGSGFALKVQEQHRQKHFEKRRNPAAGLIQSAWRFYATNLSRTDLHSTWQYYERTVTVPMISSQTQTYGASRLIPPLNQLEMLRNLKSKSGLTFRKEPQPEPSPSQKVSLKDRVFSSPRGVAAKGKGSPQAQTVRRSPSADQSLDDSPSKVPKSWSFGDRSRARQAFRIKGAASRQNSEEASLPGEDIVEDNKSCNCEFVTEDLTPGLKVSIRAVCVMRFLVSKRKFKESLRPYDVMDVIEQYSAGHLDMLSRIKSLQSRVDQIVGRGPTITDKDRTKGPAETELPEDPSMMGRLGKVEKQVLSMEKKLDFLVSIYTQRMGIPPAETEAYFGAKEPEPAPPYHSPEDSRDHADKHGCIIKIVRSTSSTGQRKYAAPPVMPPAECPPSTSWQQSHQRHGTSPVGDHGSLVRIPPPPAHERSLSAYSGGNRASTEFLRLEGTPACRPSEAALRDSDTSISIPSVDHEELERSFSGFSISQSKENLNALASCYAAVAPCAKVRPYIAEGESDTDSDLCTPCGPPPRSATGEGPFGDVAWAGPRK
KCNQ2 pot baseline: further read-out of KCNQ2 pot, marked with its call; B-score; compound at 10 µM; measured here: initial fluorescence intensity artifact check;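 brightness before thallium and not channel activity; 0 = typical well and far values either way flag optical interference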
* marks the source's active call; other numbers are inactive results. Not all compounds are listed; the hit share may differ from the screen's.

SMILES	KCNQ2 pot	KCNQ2 pot baseline
CSCCNC(=O)c1ccc(OC2CCN(S(=O)(=O)N(C)C)CC2)cc1	0.72	-0.46
COC(=O)CNC(=O)COC(=O)/C=C/c1ccc2ccccc2n1	1.8	-0.83
CC1CCCN(C(=O)Cn2nnc(-c3ccc(S(C)(=O)=O)cc3)n2)C1 (configuration not stated)	0.66	-0.94
CC[C@H](C)[C@H](NC(N)=O)C(=O)NCCc1ccc(OC)c(OC)c1	2	-0.9
COc1ccc(CCNc2ncnc3c2[nH]c2cc(OC)c(OC)cc23)cc1OC	0.12	-0.81
Cc1ccccc1CNC(=O)COc1ccccc1	0.16	1.7
CNS(=O)(=O)c1ccc(Oc2ccc(S(=O)(=O)NC)cc2)cc1	0.5	0.08
CCOc1ccc(Cc2c(C)[nH]c3ccc(C(=O)O)cc3c2=S)cc1	0.79	-0.62
CCn1c(SCC(=O)Nc2cc(OC)ccc2OC)nc2c(c1=O)SCC2	1.8	-0.72
O=C(CCN1C(=O)c2ccccc2C1=O)N1CCN(Cc2ccccc2)CC1	0.21	0.35
COc1ccc2[nH]c(C)c(CCN3C(=O)C4CC=CCC4C3=O)c2c1 (configuration not stated)	0.88	0.83
CCS(=O)(=O)N1CCC(C(=O)NCc2ccc3c(c2)OCO3)CC1	0.35	0.66
Cc1nnc(NC(=O)c2c(-c3ccccc3Cl)noc2C)s1	1.4	-1.4
COc1ccc(-c2noc(CN3CCCC(OCc4ccccn4)C3)n2)cc1 (configuration not stated)	0.27	-1.1
OCCCNc1ncnc2scc(-c3ccc(Cl)cc3)c12	1.7	-0.12
O=C(CSc1ccsc1[N+](=O)[O-])N1CCN(c2ccccn2)CC1	0.29	0.91
CC1(C)CC(NC(=O)COc2ccc3c4c(c(=O)oc3c2)CCCC4)CC(C)(C)N1	0.4	3.8
CC(C(=O)O)N1CCCCC1 (configuration not stated)	0.72	0.29
Cc1ccc(OCC(=O)N/N=C/c2cn(C)c3ccccc23)cc1	0.38	0.46
CSc1nsc(SC)c1C(=O)NC(=O)Nc1cccnc1	1.4	-0.03
CCOc1ccccc1C(=O)N(C)Cc1cc2cc(OC)ccc2[nH]c1=O	1.4	-0.28
Cc1cc(C)c(S(=O)(=O)N2CCCC2=O)c(C)c1	0.77	-0.77
O=[N+]([O-])c1ccc(NCCCNS(=O)(=O)c2ccccc2)c(Cl)c1	0.52	-0.51
COc1cc(OC)cc(C(=O)NNC(=O)C(=O)Nc2cc(OC)c(Cl)cc2OC)c1	9.3*	1.7*

Given as labelled records: 4 of the compounds above.
COc1ccc(-c2noc(CN3CCCC(OCc4ccccn4)C3)n2)cc1 (configuration not stated)
  KCNQ2 pot: 0.27	KCNQ2 pot baseline: -1.1
CNS(=O)(=O)c1ccc(Oc2ccc(S(=O)(=O)NC)cc2)cc1
  KCNQ2 pot: 0.5	KCNQ2 pot baseline: 0.08
COc1ccc2[nH]c(C)c(CCN3C(=O)C4CC=CCC4C3=O)c2c1 (configuration not stated)
  KCNQ2 pot: 0.88	KCNQ2 pot baseline: 0.83
OCCCNc1ncnc2scc(-c3ccc(Cl)cc3)c12
  KCNQ2 pot: 1.7	KCNQ2 pot baseline: -0.12

Following part:
SMILES	KCNQ2 pot	KCNQ2 pot baseline
Cc1nnc(SCC(=O)N(C)CC(=O)Nc2ccccc2Cl)s1	0.22	-0.85
CC1(C)Cc2nc3scc(NC(=O)c4ccccc4)c3cc2CO1	1.1	0.05
COc1cccc(-c2cc(C(F)(F)F)nc(NCc3ccco3)n2)c1	0.71	-0.12
Cc1c(C(=O)N2CCOCC2)[nH]c2c1C(=O)CC(c1ccc(Cl)cc1)C2 (configuration not stated)	0.05	-3.2
O=C(NNC(=O)C12CC3CC(CC(C3)C1)C2)c1ccco1	1.5	0.96
Cc1ccc(C(=O)Nc2nc3c(s2)CCCC3)o1	2.5	0.73
O=C(O)c1cc(-c2cccnc2)nc2ccc(Br)cc12	0.58	-2.4
CC1Sc2ccc(S(=O)(=O)CCC(=O)N(C)Cc3ccccc3)cc2NC1=O (configuration not stated)	0.02	1.4
COc1ccc(NC(=O)NCCC2=CCCCC2)cc1	0.17	-1.4
O=C(Nc1ccc2nc3n(c(=O)c2c1)CCCCC3)c1ccccn1	0.08	0.41
Cc1ccc2c(Cl)cc(Cl)c(OCC(=O)OCC(=O)Nc3ccc(C#N)cc3)c2n1	1.3	-0.73
O=C(Cc1cn2ccsc2n1)NCCc1ccc(F)cc1	0.17	1.4
Cc1ccc2nc(-c3cccc(N)c3)oc2c1	0.03	1.2
CC(C)=NNC(=O)C1=NNC(=O)C1	0.22	-1.7
CCOc1ccccc1-c1cc(C(=O)N/N=C/c2cccnc2)c2ccccc2n1	0.13	1.9
CCCCn1c(O)c(/C=C2\C=Nc3ccccc32)c(=O)[nH]c1=O	1	0.39
COCCNC(=O)C(=O)N/N=C/c1ccccc1C(F)(F)F	0.06	-0.14
O=C(Nc1ccccc1O)c1cc(S(=O)(=O)N2CCOCC2)c(Cl)cc1Cl	0.59	-0.49
CCOC(=O)c1ccc(NC(=O)CSc2nnc(-c3cccs3)n2C)cc1	0.73	2.3
NC1=NC[C@H](Cc2ccc(O)cc2)N1CCc1cc(C(F)(F)F)cc(C(F)(F)F)c1	0.76	1.6
O=C(Cn1cnc2ccccc21)Nc1cccc([N+](=O)[O-])c1	0.04	-0.23
COc1cc2cc(-c3ccc(O)cc3O)nc(C)c2cc1OC	0.66	-0.19
COc1ccc(C(=O)N/N=C/c2ccc(OC)c(CN3CCCc4ccccc43)c2)cc1	0.15	0.37
O=C(Nc1cccnc1Cl)c1noc2c1CCc1ccccc1-2	1.2	-0.98

Quoted at random: 5 entries already listed.
SMILES	KCNQ2 pot	KCNQ2 pot baseline
O=C(CCN1C(=O)c2ccccc2C1=O)N1CCN(Cc2ccccc2)CC1	0.21	0.35
Cc1ccccc1CNC(=O)COc1ccccc1	0.16	1.7
COC(=O)CNC(=O)COC(=O)/C=C/c1ccc2ccccc2n1	1.8	-0.83
Cc1ccc(OCC(=O)N/N=C/c2cn(C)c3ccccc23)cc1	0.38	0.46
NC1=NC[C@H](Cc2ccc(O)cc2)N1CCc1cc(C(F)(F)F)cc(C(F)(F)F)c1	0.76	1.6

(next part)
SMILES	KCNQ2 pot	KCNQ2 pot baseline
O=C(NCCc1ccccc1)C1CCN(S(=O)(=O)N2CCCCC2)CC1	0.95	0.92
COc1ccc(CCNC(=O)CSc2nnc(CNC(=O)c3c(F)cccc3Cl)o2)cc1OC	1	2
CC(C)=CCCC(C)CN(C)CCc1ccccn1 (configuration not stated)	0.48	1
COc1ccccc1NC=C1C(=O)OC2(CCCCC2)OC1=O	0.34	0.06
COc1ccc(CC(=O)N/N=C(\C)c2cccs2)cc1OC	0.26	0.46
CC(C)CCCC(C)NS(=O)(=O)Cc1ccccc1 (configuration not stated)	0.45	-1.1
Cc1ccc(C(=O)c2c3ccc([N+](=O)[O-])cc3[n+]([O-])n2CCC(N)=O)cc1	0.8	0.65
Cc1ccc(NC(=O)CSCC#N)cc1	1.3	-0.04
O=C1c2ccncc2C(=O)N1c1cccc(Cl)c1	0.9	-1.9
CC(NC(=O)C1CCN(S(=O)(=O)c2cc([N+](=O)[O-])ccc2Cl)CC1)c1ccccc1 (configuration not stated)	0.56	-2
C=CCn1c(SCC(=O)Nc2nccs2)nnc1-c1ccco1	1.4	-0.55
O=c1cc(NC2CCCCCC2)[nH]c(=O)[nH]1	0.58	-0.32
CCCCOc1ccc(C(=O)NCC(=O)NCC(=O)OCC)cc1	1.3	1.5
CCOc1ccc2nc(-c3ccc(OC)c(OC)c3)cc(C(=O)O)c2c1	0.16	1.4
C/C(=N\NC(=O)c1ccc2c(c1)OCO2)c1cccnc1	0.76	0.12
COc1cc(C)ccc1S(=O)(=O)NC1CC(C)(C)NC(C)(C)C1	1.1	-0.22
CC(C)(C)c1nnc(NC(=O)NS(=O)(=O)c2ccccc2)s1	0.61	-1.6
CCOC(=O)c1c(C)n(CC(O)CN(C)C)c2cc(Br)c(OC)cc12 (configuration not stated)	0.98	1.2
CCc1[nH]nc(C(=O)N2CCCC(CNS(=O)(=O)c3cccs3)C2)c1C (configuration not stated)	0.46	0.45
Cc1cccc(OCCCCCN2CCOCC2)c1	0.96	0.41
Cc1cc(C(N)=O)c2ccccc2n1	0.09	-1.7
CC(C)NC(=O)c1nn(C)c2ccccc12	0.58	-0.02
COc1ccc(CCNC(=O)C(=O)c2c(C)[nH]c3ccccc23)cc1	2.5	0.11
CCOC(=O)c1ccc(NC(=O)Cn2nnc(-c3ccccc3C)n2)cc1	0.34	0.14
COc1ccc(/C=N/NC(=O)C2C3CCCCC32)cc1OC (configuration not stated)	2.2	1.1
O=C(O)CSCC(=O)Nc1ccccc1	0.18	0.03
Cc1ccc(NC(=O)C2CC(=O)N(C(C)C)C2)cc1Cl (configuration not stated)	1.7	-0.18
COc1ccc(C(=O)NNC(=O)Cc2ccc([N+](=O)[O-])cc2)cc1	0.47	-0.56
O=C(CSc1nnc2ccc(-c3ccncc3)nn12)c1cccs1	0.83	-0.01
NC(=O)C1CCN(C(=O)CSc2nc3c(c(-c4ccccc4)n2)CCCC3)CC1	1.3	-0.33
Cc1nnc(NC(=O)c2cccc(S(=O)(=O)N3CCCC3)c2)s1	0.44	1.7
CCOc1ccc(N(CC(=O)NC(C)(C)C)C(=O)CCC(=O)Nc2nccs2)cc1	1.1	0.02
CCC(=O)Nc1ccccc1C(=O)C(=O)Nc1ccccc1	0.77	-1
C=CCN(Cc1nc(-c2ccc(OC)c(OC)c2)oc1C)C1CCS(=O)(=O)C1 (configuration not stated)	1.1	0.04
CC(=O)Nc1ccc(OCC(=O)NCc2ccccc2)cc1	0.52	-1.2
O=C(COc1cccc(NC(=O)c2ccccc2)c1)c1ccc(F)cc1	0.04	0.02
N#CC1=C(N)OC2=C(C(=O)CC(c3ccccc3)C2)C1c1ccoc1 (configuration not stated)	0.37	-2.5
COc1ccc(-c2cc(-c3ccccc3)c(C#N)c(=S)[nH]2)cc1	2.7	1.5
Cc1ccc(-c2csc(N3CCN(S(=O)(=O)c4ccc5c(c4)NC(=O)CO5)CC3)n2)cc1	0.14	-0.1
CCCc1cc(=O)[nH]c(SCC(=O)N2N=C(c3ccc(Cl)cc3)CC2c2ccco2)n1 (configuration not stated)	0.54	0.21
CC(=O)NCCc1nc2cc(NC(=O)Nc3ccccc3)ccc2n1C	1.1	-2
CC(C)=CCc1cc([C@@H]2COc3c(ccc4c3C=CC(C)(C)O4)C2)c(O)cc1O	6*	0.16*
O=C(Nc1ccc(C(=O)NCCCN2CCN(c3ccc(F)cc3)CC2)cc1)C1=CSCCO1	0.72	-1.2
COC(=O)c1ccccc1NC(=O)c1cc(-c2ccco2)on1	0.02	0.03
CC(C)(C)C(=O)C1=C(O)C(=O)N(Cc2ccccc2)C1c1ccccc1Cl (configuration not stated)	1.1	-1.7
CCC(C(=O)N1CCN(C(=O)c2ccco2)CC1)c1ccccc1 (configuration not stated)	0.9	-0.8
Cc1cc(C(=O)CSc2n[nH]c(N)n2)c(C)n1-c1ccc2c(c1)OCO2	0.2	-0.92
Cn1c(SCC(=O)Nc2nccs2)nnc1-c1ccccn1	1.2	0.69
Cc1cc(=O)[nH]c(N/N=C/c2ccc(-c3ccc(F)cc3)o2)n1	0.26	0.95
CC(OC(=O)Cn1cnc2c1c(=O)n(C)c(=O)n2C)C(=O)c1ccccc1 (configuration not stated)	0.05	1.6
CC(=O)c1ccc(C(=O)NC2CCCN(Cc3ccccc3F)C2)cc1 (configuration not stated)	0.1	0.72
CC(=O)N1Cc2ccccc2CC1C(=O)O (configuration not stated)	2.1	-1.1
O=C(O)c1ccc(OCc2occc2C(=O)O)cc1	1.2	-1.3
Cc1ccc(C)c(S(=O)(=O)N2CCN(C(=O)Cc3c(F)cccc3Cl)CC2)c1	2	-2.2
OCCCn1c(C2CCCN2c2nc(-c3ccc(F)cc3)cs2)nc2cc(Cl)c(Cl)cc21 (configuration not stated)	0.26	1
CCN(CC)S(=O)(=O)c1ccc(Cl)c(NC(=O)COc2ccccc2[N+](=O)[O-])c1	0.02	-0.59
Cc1cc(Cl)ccc1C(=O)C1CCCN(C(=O)CCn2cnnn2)C1 (configuration not stated)	0.5	2.3
Cc1ccccc1Nc1nn2c(=O)c3ccccc3nc2s1	0.38	-0.17
COC(=O)C1=CN(Cc2cccs2)C=C(C(=O)OC)C1c1cccc(OC)c1OC	0.96	-0.19
CN(C)C(=O)Oc1cccc([N+](C)(C)C)c1	0.15	-0.56

(next part)
SMILES	KCNQ2 pot	KCNQ2 pot baseline
CCc1ccc(NC(=O)c2ccc3c(c2)C(=O)N(Cc2ccco2)C3=O)cc1	0.11	-0.02
COc1cccc(/C=C2/SC(=S)N(CCC(=O)N3CCOCC3)C2=O)c1	0.28	0.44
Cc1ccc(CSCC(N)C(=O)O)cc1 (configuration not stated)	0.01	-2.3
CCSc1nc(=O)n(-c2ccccc2)c(C)c1C(C)=O	0.79	-0.03
CC1=CC(C)C2C(=O)N(CCC[N+](C)(C)C)C(=O)C2C1 (configuration not stated)	1.5	1.4
CCc1ccc(OCc2nnc(SCC(=O)N3CCOCC3)o2)cc1	0.72	-1
CN(CC(=O)Nc1c(Cl)cccc1Cl)C(=O)c1sccc1-c1ccccc1	0.89	-0.57
COC(=O)c1c(C)c2c(C)cc3ccccn3c-2c1C(=O)OC	0.05	-0.67
O=C1c2cccnc2C(=O)N1Cc1ccco1	1.5	-0.26
Cc1ccc2c(cnn2C(=O)CCC(=O)NCc2cccc(Cl)c2)c1	0.73	-0.77
CCOC(=O)N1CCN(C(=O)c2ccc(NS(=O)(=O)c3ccc(C)cc3)cc2)CC1	0.69	-1.6
Nc1cc(-c2ccc(Br)cc2)nn1S(=O)(=O)c1cccc2nsnc12	6.9*	-0.34*
COCC(=O)N(CCc1ccc(OC)c(OC)c1)Cc1nc2ccccc2c(=O)[nH]1	0.8	1.1
